# Screens deposited in PubChem BioAssay by several laboratories.
# Env fusion inh: blocks HIV Env-driven cell-cell fusion | 360,000 tested, 1.1% active | inhibition, % at 12.3 µM | AID 651610 | HeLa-JRFL Env/CEM21 cell fusion, luciferase;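 active means mean replicate inhibition score of at least 50 and every replicate individually at or above 50; inconclusive means only one of the two criteria met; inactive means mean below 50 and not all replicates reaching 50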;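 further: 0% = plate neutral controls and 100% = maraviroc near 300 nM; one replicate is shown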
# PABP FP inh: PABP-poly(A) binding inhibition; 290,000 tested, 1% active; PABP-poly(A) RNA binding, fluorescence polarization; inhibition, % at 35 µM;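 active means 50% or more with normal probe brightness, or confirmed in later tests; inconclusive means above 50% with abnormal brightness, or retests that disagree; inactive means below 50% or failed in later tests; about a fifth of its hits are not listed in these tables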;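 further: calls also rest on retests at 20 µM and on dose response follow-up; controls were probe without protein and protein plus probe with vehicle; some compounds called inactive have numbers as strong as hits; many hits fall short of the cut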
# MT1-MMP act inh: blocks activation of human MT1-MMP; P50281; HT1080 RFP-PRO-GFP cells, GFP/RFP ratio fluorescence, overnight; percent of plate control window, DMSO zero; GFP/RFP ratio change, % at 20 µM; 360,000 tested, 0.061% active; AID 651647;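 active means GFP/RFP ratio change of at least 30% with cell ATP level not reduced by more than half and red fluorescence within 50% of control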; further: strong numbers were not always called active
#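 Material: RFP-PRO-GFP reporter HT1080 cells. Dosing: single-point 20 µM compound, 1% DMSO. Controls: DMSO and RFP-L50D-GFP cell wells. Timing: cells overnight before dosing, compound overnight, 37 °C, 5% CO2. Measure: GFP/RFP fluorescence ratio.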
# CSC inhib: cancer stem cell inhibition. cancer stem cell-like cells viability, luminescence. inhibition, % at 7.5 µM. 300,000 tested, 1.1% active;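 active means mean at 75% or more and at least half the replicates too; inconclusive means mean and replicates disagree; tested in HMLE shEcad cells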;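 further: 0% = median of negative and 100% = median of positive control wells; the first replicate is given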
# eIF4H FP inh: inhibitors of RNA binding by human eIF4H; 290,000 tested, 0.94% active; AID 2012; eIF4H fluorescence polarization binding assay; inhibition, % at 35 µM;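 active means 50% or more with normal probe brightness, or confirmed in later tests; inconclusive means above 50% with abnormal brightness, or retests that disagree; inactive means below 50% or failed in later tests; about a fifth of its hits are not listed in these tables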;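 further: calls also rest on retests at 20 µM and on dose response follow-up; 0% = protein and probe with vehicle and 100% = probe without protein; strong numbers were not always called active; many hits fall short of the cut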
# Rce1 inhib: inhibitors of yeast Ras-converting enzyme | yeast membranes, quenched prenylated peptide cleavage fluorescence | Q03530 | calls only | 290,000 tested, 0.27% active;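 active means fall in fluorescence gain of 50% or more versus controls, with final raw signal at or below 3038400; inconclusive means same 50% fall but final raw signal above 3038400; inactive means fall in fluorescence gain under 50%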;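 further: plate controls were neutral control wells for no effect and wells lacking membranes for full effect; tested at 10 µM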
# Target sequence (Q03530 whole entry, looked up): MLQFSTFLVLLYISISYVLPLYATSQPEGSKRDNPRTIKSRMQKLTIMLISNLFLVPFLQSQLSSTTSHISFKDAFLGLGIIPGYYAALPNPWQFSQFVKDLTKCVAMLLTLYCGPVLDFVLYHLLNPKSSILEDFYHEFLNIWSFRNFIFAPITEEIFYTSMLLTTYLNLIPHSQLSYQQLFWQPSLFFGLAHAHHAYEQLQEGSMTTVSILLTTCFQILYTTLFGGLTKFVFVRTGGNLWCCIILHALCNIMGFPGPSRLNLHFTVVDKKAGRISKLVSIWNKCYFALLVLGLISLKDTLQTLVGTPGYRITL
# Yeast UUG start: yeast start codon fidelity modulation; 350,000 tested, 0.13% active; activity score, % at 18.7 µM; S. cerevisiae UUG-firefly luciferase reporter, luminescence/redox ratio;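 active means replicate mean at a twofold rise or more, about +100% in these data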;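 further: firefly luciferase made from a UUG start codon reports start codon fidelity; reporter light over untreated wells divided by growth signal over untreated wells; some hits fall short of that in this replicate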
# MT1-MMP act inh RFP: second read-out of MT1-MMP act inh, no call of its own (marks repeat the call); RFP signal change, %; measured here: RFP expression control read;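 0 = vehicle wells; hits needed this value within 50% of zero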
# Active calls of the source: *; i = inactive; ? = inconclusive; . = no result given.
SMILES,Env fusion inh,PABP FP inh,MT1-MMP act inh,MT1-MMP act inh RFP,CSC inhib,eIF4H FP inh,Rce1 inhib,Yeast UUG start
CN1CCCN(C2C3CC4CC(C3)CC2C4)CC1 (stereo unspecified),-23,9,1,4,46,5,i,-6
O=C(NCc1ccccc1CN1CCCCC1)c1ccccc1N1CCCC1=O,.,.,-2,0,-9,.,.,-10
Cc1nc(N)c(C#N)c(-c2ccccc2)c1C,.,1,-7,-7,-12,2,i,-14
COc1cc(/C=N/N2CCN(c3ccccc3OC)CC2)ccc1O,-12,-13,9,2,42,-6,i,.
O=C(NCSC1=NCCS1)c1ccccc1,-34,-8,-1,-1,2,2,i,.
O=C(N/N=C\c1cc2c(cc1Cl)OCO2)c1cccnc1,-10,11,-1,2,-6,14,i,0
CC1CN(C(=O)CCC(=O)NCCCN2CCC(Cc3ccccc3)CC2)c2cc(Cl)ccc2O1 (stereo unspecified),22,1,-10,-6,23,6,i,-15
CCCCSC1(SCCCC)N=C(N)C2(C#N)C(c3ccccc3)NC(C)=C(C)C12C#N (stereo unspecified),.,4,-17,-11,5,9,i,-7
CSCCNC(=O)C1(C)CCN1C(=O)c1ccc(C(C)(C)C)cc1 (stereo unspecified),-26,.,4,-2,.,.,.,2
Cc1ccc(C(NC(=O)C2CCN(CCCOc3ccccc3)CC2)c2ccccn2)cc1 (stereo unspecified),24,.,0,7,.,.,.,-37
Cc1cc(Br)c(OCc2ccc(C(=O)N/N=C3\CC(=O)CC(C)(C)C3)cc2)c(Br)c1,.,4,-4,-14,-2,-5,i,.
COCCCN(Cc1cc(OC)c(OC)c(OC)c1)C(=S)Nc1cccc(SC)c1,?,.,5,-10,.,.,.,-18
CN(C)c1c([N+](=O)[O-])cc2[nH]c(=O)[nH]c2c1[N+](=O)[O-],-52,14,15,-1,-5,-3,i,-12
CCn1c(C)[n+](Cc2ccccc2)c2ccc(C(=O)OC)cc21,-1,-12,-2,-6,-1,6,i,.
Cn1c(N)c(C(=O)COC(=O)c2cc3ccccc3cc2O)c(=O)n(C)c1=O,3,.,-4,1,10,.,.,-3
CCc1cccc(CC)c1NC(=S)NCc1nc2ccccc2[nH]1,-3,-4,3,1,2,-7,i,.
Cc1ccsc1/C=N/NC(=O)c1ccccn1,-26,3,0,1,5,-6,i,-7
CCC(c1nnnn1-c1ccc2c(c1)OCCO2)N1CCN(C/C=C/c2ccccc2)CC1 (stereo unspecified),-5,.,3,-5,.,.,.,-5
COc1ccc(CCNC(=O)CCNC(=O)N2CC(=O)Nc3ccccc32)cc1,-15,2,6,3,-9,4,i,-3
COc1ccc(C(CNC(=O)c2cccc(S(=O)(=O)Nc3ccc(Br)cc3)c2)N(C)C)cc1 (stereo unspecified),3,.,0,-7,.,.,.,5
CCOC(=O)c1cnc2cc3c(cn2c1=O)CCCC3,.,11,-2,3,4,6,i,5
Cc1ccc(S(=O)(=O)N2CCC(C(=O)N3CCC[C@H]3C(=O)NC3CCS(=O)(=O)C3)CC2)cc1 (stereo partly specified),-106,8,4,-1,.,0,i,-11
COc1cc(/C=C(\C#N)C(=O)NCC2CCCO2)ccc1OC(C)C (stereo unspecified),6,8,-3,-1,-5,-6,i,.
Cc1cc(N2CCOCC2)ccc1/C=C1\NC(=O)N(CC(=O)Nc2ccc(F)cc2)C1=O,-6,-4,0,-2,.,-16,i,.
CC(C)CCNC(=O)C1(c2cccs2)CCOCC1,9,-11,-3,-1,-10,4,i,-9
C=CCn1c(=NC(=O)C2CCCCC2)sc2cc(NC(C)=O)ccc21,21,2,0,-4,.,-13,i,-16
CCOc1ccc(OCCNCc2ccc(OC(C)C(=O)N(C)C)c(OCC)c2)cc1 (stereo unspecified),9,12,1,2,-18,11,i,-1
CC1(OC(=O)CCc2ccccc2)C(=O)C=C2C=C(c3ccc(C#N)cc3)N(CCc3ccccn3)C=C2C1=O (stereo unspecified),-11,27,-2,3,-1,36,i,-8
Cc1ccccc1NC(=O)c1ccc(NS(=O)(=O)c2cc(C(C)(C)C)cc(C)c2C)cc1,16,1,-16,-18,56,-2,i,-9
O=C(NNC(=S)NC(=O)c1ccco1)c1ccc(NC(=O)c2ccccc2)cc1,23,-15,1,-3,-1,8,i,.
O=C(Cc1ccccc1)N/N=C/c1cccnc1,-7,-7,0,2,-7,-14,i,-11
O=C1C=C(c2ccccc2)C(c2ccccc2)C1 (stereo unspecified),0,.,2,2,.,.,.,-3
CCOC(=O)C(NC(C)=O)C(=O)Nc1c(C)cccc1C (stereo unspecified),-3,-11,3,0,11,0,i,.
Cc1cccc(N2CCN(S(=O)(=O)c3c(C(=O)N4CCCCC4)c(C)n(C)c3C)CC2)c1C,5,5,-7,-5,-6,-12,i,34
N=c1ccn(Cc2ccc(Cl)c(Cl)c2)cc1,.,-3,4,-6,38,13,i,-15
O=C(/C=C/c1ccccc1)Nc1ccc(Cl)cn1,-233,8,-7,-11,.,1,.,.
N#CCSc1nnc(-c2ccc(F)cc2)n1N,7,-13,1,0,-3,-10,i,.
CCNC(=O)N1C(=O)C2(OCCO2)c2cc(Br)ccc21,-5,3,-3,0,.,-1,i,1
O=C(CSc1nnc(-c2ccccc2F)n1C1CC1)Nc1cccnc1Cl,0,14,-5,3,-6,5,i,-31
CCOC(=O)CNC(=O)C12CC3CC(C1)CC(c1ccc(C)cc1)(C3)C2,4,12,2,5,.,3,i,.
CCCC1=Nc2cc(C(=O)NCCCN3CCOCC3)ccc2Sc2ccccc21,-11,-7,1,2,32,-6,i,-22
COC(=O)C1CCN(C(=O)c2ccc3oc(Cc4ccc(Cl)cc4)nc3c2)CC1,.,-4,3,-4,-3,-5,i,0
O=C(CNC(=O)c1ccc2c(c1)OCO2)N/N=C/c1cccc([N+](=O)[O-])c1,20,3,-2,1,0,1,i,.
COc1ccc(C(=O)N/C(=C\c2cn(S(=O)(=O)N(C)C)c3ccccc23)C(=O)NCCN2CCOCC2)cc1OC,-3,-13,3,4,-1,-4,i,.
Cc1ccc(S(=O)(=O)NNC(=O)CCCCC(=O)NNS(=O)(=O)c2ccc(C)cc2)cc1,-5,-17,6,3,2,-4,i,-8
CCS(=O)(=O)N1Cc2ccccc2CC1C(=O)N(C)CC(=O)Nc1ccc(OC)cc1 (stereo unspecified),3,.,-2,0,-5,.,.,8
O=C(O)c1ccc(COCC(F)(F)C(F)F)o1,.,19,-1,1,.,13,i,-31
Cc1csc(-c2cnn(-c3ccccc3)c2NC(=O)c2cccc(F)c2)n1,.,-15,.,.,-10,4,i,.
Cc1cccc(N2CCN(C(=S)c3ccc(-c4ccccc4[N+](=O)[O-])o3)CC2)c1,-1,-2,5,5,-12,19,i,.
COc1ccccc1NC(=O)CN1CCC(n2nnc3cc(F)ccc32)CC1,31,8,0,1,-13,2,i,-4
COc1ccc(C(C(=O)NC2CCCC2)N(C(=O)c2ccoc2C)c2ccc(C)cc2)cc1 (stereo unspecified),90*,5,-23,-12,3,1,i,-16
S=c1[nH]cc(-c2ccccc2)n1-c1ccccc1,-31,-4,4,0,9,0,i,-14
CC(C)Cn1c(N)c(-c2nc(C(C)C)c(C(=O)c3ccccc3F)s2)c(=O)n(C)c1=O,.,-1,.,.,-2,6,i,.
Cc1ccc(S(=O)(=O)N2CC(=O)NC(=O)C2)cc1,6,3,2,2,17,-2,i,-5
CN(Cc1ccccc1)C(=O)COC(=O)c1ccc(Cl)c(N)c1,27,8,0,5,1,0,i,.
C1CCC(CNc2c3c(nc4nnnn24)CCCC3)CC1,.,-1,-20,-10,7,2,i,-4
CCCCN(C(=O)c1ccc([N+](=O)[O-])s1)c1c(N)n(CCCC)c(=O)[nH]c1=O,5,.,-2,4,-9,.,i,-4
COc1cc(/C=C2/C(=O)CNC2=O)ccc1O,-68,0,1,2,-21,?,i,.
O=C(COCC(=O)N1CCOCC1)N1CCOCC1,2,0,2,5,-18,2,i,4
COc1ccc(C(=O)NN)cc1,-8,4,-2,2,-15,-5,i,-25

# (cont.)
SMILES,Env fusion inh,PABP FP inh,MT1-MMP act inh,MT1-MMP act inh RFP,CSC inhib,eIF4H FP inh,Rce1 inhib,Yeast UUG start
Cc1cccc(Oc2nc3ccccn3c(=O)c2/C=C(\C#N)C(=O)NC2CCS(=O)(=O)C2)c1 (stereo unspecified),-2,3,0,3,0,5,i,.
COC(=O)C1CCN(C(=O)c2ccc(SC)cc2OC)CC1,5,-6,2,7,6,-7,.,12
O=C1C2CCCN2C(=O)N1CCCN1CCN(c2cccc(Cl)c2)CC1 (stereo unspecified),.,6,3,-1,3,5,i,.
CCCCOc1ccc(Cc2c(Cl)nc(SC)nc2N2CCOCC2)cc1,19,-11,-4,-4,24,-8,i,-11

# Some of these compounds in order of molecular weight, ascending:
SMILES,Env fusion inh,PABP FP inh,MT1-MMP act inh,MT1-MMP act inh RFP,CSC inhib,eIF4H FP inh,Rce1 inhib,Yeast UUG start
COc1ccc(C(=O)NN)cc1,-8,4,-2,2,-15,-5,i,-25
COc1cc(/C=C2/C(=O)CNC2=O)ccc1O,-68,0,1,2,-21,?,i,.
S=c1[nH]cc(-c2ccccc2)n1-c1ccccc1,-31,-4,4,0,9,0,i,-14
O=C(COCC(=O)N1CCOCC1)N1CCOCC1,2,0,2,5,-18,2,i,4
C1CCC(CNc2c3c(nc4nnnn24)CCCC3)CC1,.,-1,-20,-10,7,2,i,-4
COC(=O)C1CCN(C(=O)c2ccc(SC)cc2OC)CC1,5,-6,2,7,6,-7,.,12
CN(Cc1ccccc1)C(=O)COC(=O)c1ccc(Cl)c(N)c1,27,8,0,5,1,0,i,.
Cc1csc(-c2cnn(-c3ccccc3)c2NC(=O)c2cccc(F)c2)n1,.,-15,.,.,-10,4,i,.
COc1ccccc1NC(=O)CN1CCC(n2nnc3cc(F)ccc32)CC1,31,8,0,1,-13,2,i,-4
Cc1cccc(N2CCN(C(=S)c3ccc(-c4ccccc4[N+](=O)[O-])o3)CC2)c1,-1,-2,5,5,-12,19,i,.
CCCCOc1ccc(Cc2c(Cl)nc(SC)nc2N2CCOCC2)cc1,19,-11,-4,-4,24,-8,i,-11
CCCCN(C(=O)c1ccc([N+](=O)[O-])s1)c1c(N)n(CCCC)c(=O)[nH]c1=O,5,.,-2,4,-9,.,i,-4
CC(C)Cn1c(N)c(-c2nc(C(C)C)c(C(=O)c3ccccc3F)s2)c(=O)n(C)c1=O,.,-1,.,.,-2,6,i,.
CCS(=O)(=O)N1Cc2ccccc2CC1C(=O)N(C)CC(=O)Nc1ccc(OC)cc1 (stereo unspecified),3,.,-2,0,-5,.,.,8
COc1ccc(C(C(=O)NC2CCCC2)N(C(=O)c2ccoc2C)c2ccc(C)cc2)cc1 (stereo unspecified),90*,5,-23,-12,3,1,i,-16
Cc1cccc(Oc2nc3ccccn3c(=O)c2/C=C(\C#N)C(=O)NC2CCS(=O)(=O)C2)c1 (stereo unspecified),-2,3,0,3,0,5,i,.
Cc1ccc(S(=O)(=O)NNC(=O)CCCCC(=O)NNS(=O)(=O)c2ccc(C)cc2)cc1,-5,-17,6,3,2,-4,i,-8
COc1ccc(C(=O)N/C(=C\c2cn(S(=O)(=O)N(C)C)c3ccccc23)C(=O)NCCN2CCOCC2)cc1OC,-3,-13,3,4,-1,-4,i,.
